VDR inhibitor: inhibitors of human vitamin D receptor; P11473; VDR-SRC2-3 peptide fluorescence polarization, 2 h; actives 0.93% (n = 400,000); Potency, µM, without a hit: max response, negative = inhibition, hits mostly inhibitors; active = well fitted inhibition curve with a large enough effect; inconclusive = small, poorly fitted or top-dose-only effect, or another doubt; inactive = no such curve, though single readings can be large or run the other way; note: series mostly up to about 120 µM
Target sequence (P11473 whole entry, looked up): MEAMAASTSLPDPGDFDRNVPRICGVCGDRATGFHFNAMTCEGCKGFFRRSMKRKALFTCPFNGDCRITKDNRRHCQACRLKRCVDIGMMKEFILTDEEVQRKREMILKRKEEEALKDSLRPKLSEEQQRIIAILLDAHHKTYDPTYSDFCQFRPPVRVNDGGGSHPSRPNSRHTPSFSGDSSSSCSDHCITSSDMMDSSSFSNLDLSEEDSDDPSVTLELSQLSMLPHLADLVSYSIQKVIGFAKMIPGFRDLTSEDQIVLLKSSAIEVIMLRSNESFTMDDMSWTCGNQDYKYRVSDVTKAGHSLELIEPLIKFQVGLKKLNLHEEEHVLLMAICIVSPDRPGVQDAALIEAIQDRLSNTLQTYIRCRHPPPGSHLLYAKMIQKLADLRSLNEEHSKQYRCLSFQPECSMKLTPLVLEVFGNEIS
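Inhibition of the VDR/SRC2-3 peptide interaction is quantified by fluorescence polarization. Compounds (23 nl, pintool) incubate with the reagents for 2 hours at ambient room temperature.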
Numbers without * were called inactive. % is set by controls: 0 for no effect and ±100 for the full control effect; potency is the fitted concentration of half-maximal effect. Some of the compounds tested. The share of hits here may be higher or lower than overall.

Screening O=C1C2(CCC13COC(c1ccc(O)cc1)OC3)COC(c1ccc(O)cc1)OC2 (stereo not drawn) returned VDR inhibitor -2.4%.
CCOc1ccccc1/C=C/c1onc(C)c1S(=O)(=O)N1CCC(C(=O)N2CCCCCC2)CC1 was read as VDR inhibitor -13.5%.
`COc1ccc(OCC(=O)Nc2cc(S(=O)(=O)N3CCCC3)ccc2Cl)cc1` gave VDR inhibitor 1.5%.
For CC(=O)c1c(N2CCN(Cc3ccccc3)CC2)[nH]c(-c2ccccc2)nc1=S the results were VDR inhibitor 21.8%.
Screening Cc1onc(-c2c(Cl)cccc2Cl)c1C(=O)N/N=C(\N)COc1ccc(Cl)cc1 returned VDR inhibitor -7.8%.
Screening CCc1cc(-c2nc(N)ncc2-c2ccc(Br)cc2)c(O)cc1OC returned VDR inhibitor 2.1%.
Screening CC1CCN(C(=O)C2CCCCN2S(=O)(=O)c2cccc([N+](=O)[O-])c2)CC1 (stereo not drawn) returned VDR inhibitor -3.6%.
Screening Cc1ccc(NC(=O)CSCc2cc(=O)c3ccccc3[nH]2)c(C)c1 returned VDR inhibitor 5.9%.
CCCCc1ccc(NC(=O)c2ccc3c(c2)CCN3S(=O)(=O)CC)cc1 was read as VDR inhibitor 0.9%.
`Cc1nn(CC(=O)OCC(=O)Nc2cccc(S(N)(=O)=O)c2)c(C)c1[N+](=O)[O-]` gave VDR inhibitor 10.1%.

Filtered by structure: those above with a nitro group on carbon.
Screening CC1CCN(C(=O)C2CCCCN2S(=O)(=O)c2cccc([N+](=O)[O-])c2)CC1 (stereo not drawn) returned VDR inhibitor -3.6%.
`Cc1nn(CC(=O)OCC(=O)Nc2cccc(S(N)(=O)=O)c2)c(C)c1[N+](=O)[O-]` gave VDR inhibitor 10.1%.

Next section
`CCOc1ncccc1C(=O)Nc1ccccc1F` gave VDR inhibitor -8.8%.
`CCCCN(C(=O)Cc1ccc2c(c1)OCCO2)c1c(N)n(CC(C)C)c(=O)[nH]c1=O` gave VDR inhibitor 5.4%.
For CC(=O)Oc1ccccc1C(=O)Nc1ccccc1 the results were VDR inhibitor -4.6%.
For CC1Cc2nc(SCC(=O)c3ccccc3)n(Cc3ccccc3)c(=O)c2S1 (stereo not drawn) the results were VDR inhibitor -8.1%.
`COc1cc(C2CC(c3cccnc3)=NN2c2ccc(F)cc2)cc(OC)c1OC` (stereo not drawn) gave VDR inhibitor -8.1%.
Screening CC(=O)CCC(=O)NC1CCCc2c1cnn2-c1ccc(C(C)(C)C)cc1 (stereo not drawn) returned VDR inhibitor -8.3%.
`CCN(CC)S(=O)(=O)c1cccc(C(=O)Nc2nnc(C)s2)c1` gave VDR inhibitor -6.3%.
`COc1ccc(NC(=O)c2cc(=O)c3cc(C)cc(C)c3o2)cc1` gave VDR inhibitor 13.6%.
O=C(NC1CCCN(Cc2ccc(Cl)cc2)C1)c1c(F)cccc1F (stereo not drawn) was read as VDR inhibitor 0.1%.
For COc1ccc(/C=C2\C(=O)NC(=S)N2C(=O)c2ccc(F)cc2)cc1 the results were VDR inhibitor 4.0%.
For CC(=O)NS(=O)(=O)c1ccc(NC(=O)/C=C/c2ccccc2)cc1 the results were VDR inhibitor -6.9%.
`COc1ccccc1NC(=O)CSC(N)=O` gave VDR inhibitor 22.4µM*.
`Cc1[nH]c2ccccc2c1/C=C/c1nc2ccccc2c(=O)[nH]1` gave VDR inhibitor -7.7%.
For CC(=O)Nc1nc(C(=O)Nc2c(C)n[nH]c2C)cs1 the results were VDR inhibitor 22.5%.
For Cc1ccc(S(=O)(=O)NC(C)C(=O)Nc2ccccc2C(=O)N2CCCC2)cc1 (stereo not drawn) the results were VDR inhibitor -15.4%.
Screening COc1cc(CN2CC(=O)N(c3cccc(Cl)c3C)C2=S)cc(OC)c1OC returned VDR inhibitor -5.4%.
`CCN(CC)S(=O)(=O)c1cccc(NC(=O)Nc2cccc(C(F)(F)F)c2)c1` gave VDR inhibitor -4.5%.
For CC(C)CC(=O)NNC(=O)C(C)C the results were VDR inhibitor 6.3%.
`COc1ccc(Cn2c(C3CC3)nc3ccc(NC(C)=O)cc3c2=O)cc1` gave VDR inhibitor -14.2%.
`CCC(=O)Nc1ccccc1Nc1cc(C#N)c(C#N)cc1[N+](=O)[O-]` gave VDR inhibitor 0.5%.

Six compounds picked at random from the list so far:
For CC(=O)NS(=O)(=O)c1ccc(NC(=O)/C=C/c2ccccc2)cc1 the results were VDR inhibitor -6.9%.
`COc1ccccc1NC(=O)CSC(N)=O` gave VDR inhibitor 22.4µM*.
`CCC(=O)Nc1ccccc1Nc1cc(C#N)c(C#N)cc1[N+](=O)[O-]` gave VDR inhibitor 0.5%.
`CCN(CC)S(=O)(=O)c1cccc(NC(=O)Nc2cccc(C(F)(F)F)c2)c1` gave VDR inhibitor -4.5%.
`COc1ccc(Cn2c(C3CC3)nc3ccc(NC(C)=O)cc3c2=O)cc1` gave VDR inhibitor -14.2%.
`Cc1[nH]c2ccccc2c1/C=C/c1nc2ccccc2c(=O)[nH]1` gave VDR inhibitor -7.7%.

Following part
For COC(=O)/C=C/C(=O)N1CCN(c2ccccc2C)CC1 the results were VDR inhibitor -11.9%.
CCCCn1c(=O)c2c(nc3n2CCCN3Cc2ccccc2)n(C)c1=O was read as VDR inhibitor -3.5%.
`O=C(Nc1ccccc1N1CCN(c2ccc(F)cc2)CC1)C12CC3CC(CC(C3)C1)C2` gave VDR inhibitor 3.2%.
Screening COC(=O)CCCCCCCCC(O)C[N+]1(C)CCOCC1 (stereo not drawn) returned VDR inhibitor 2.3%.
O=C(Nc1nccs1)c1ccc(COc2ccccc2Cl)o1 was read as VDR inhibitor 15.2%.
`O=C(CCn1nc(-c2ccc(Cl)cc2)c2ccccc2c1=O)NCC1CCCO1` (stereo not drawn) gave VDR inhibitor -10.3%.
CCOc1ccc(C(=O)NC2CCN(S(=O)(=O)c3ccccc3)CC2)cc1 was read as VDR inhibitor 0.1%.
O=S1(=O)CCC(NC(=S)Nc2ccc3ccccc3c2)C1 (stereo not drawn) was read as VDR inhibitor 21.9%.
`Cc1cc(C(=O)CSc2nnc(NCc3ccccc3)s2)c(C)n1C` gave VDR inhibitor -11.9%.
`CC(C)C[C@H]1CN([C@@H](Cc2ccc(O)cc2)CN2CCC[C@@H]2CN2C(=O)C(=O)NC[C@@H]2Cc2ccccc2)C(=O)C(=O)N1CC1CCCCC1` gave VDR inhibitor -8.8%.
CCN1CCN(c2ccc(S(=O)(=O)N3CCCCC3)cc2NC(=O)c2cccc(Cl)c2)CC1 was read as VDR inhibitor -16.2%.
`Cc1ncc2c(n1)-c1cc(F)ccc1SC2` gave VDR inhibitor -4.7%.
`CC(C)(C)NCC(O)COCc1ccc(Cl)cc1` (stereo not drawn) gave VDR inhibitor -18.2%.
`OC(C#CCCN1CCCCC1)(c1ccccc1)C1CCCCC1` (stereo not drawn) gave VDR inhibitor -11.1%.
O=C(Nc1ccc(F)cc1)NC1(C(=O)NCc2ccc3c(c2)OCO3)CCCCC1 was read as VDR inhibitor -4.9%.
CC(C)(C)c1csc(NC(=O)c2ccccc2O)n1 was read as VDR inhibitor -9.4%.
Screening COc1ccc(CCNc2nc(SCc3ccc(Cl)cc3)nc3ccccc23)cc1OC returned VDR inhibitor 1.9%.
`CC(C)N1CC(C(=O)Nc2ccc(S(=O)(=O)N3CCCCC3)cc2)CC1=O` (stereo not drawn) gave VDR inhibitor -2.4%.
For CCOC(=O)CC(=O)CSc1nc2c(cc1C#N)CCCCCC2 the results were VDR inhibitor 4.1%.
`COc1ccc(Oc2ncc3nc(CCc4ccccc4)c(=O)n(C4CC4)c3n2)cc1` gave VDR inhibitor -22.9%.
For CCOC(=O)N/N=C(/c1ccccc1)C1CCCCC1 the results were VDR inhibitor 1.7%.
COc1cc2c(cc1OC)CN(C(=S)Nc1ccccc1)CC2 was read as VDR inhibitor 4.2%.
Screening NC(=O)c1ccsc1NC(=O)COC(=O)CCOc1ccccc1 returned VDR inhibitor 10.1%.
`Cc1nn(CC(=O)N2CCN(Cc3ccccc3)CC2)c(=O)c2ccccc12` gave VDR inhibitor 15.6%.
Screening CCCCn1cc(S(=O)(=O)c2ccc(C)cc2)c(=O)c2cc(F)c(N3CCCCC3)cc21 returned VDR inhibitor 11.9%.
For C/C(=N/NC(=O)c1sc(NS(=O)(=O)c2ccccc2)nc1C)c1ccc(F)cc1 the results were VDR inhibitor -7.8%.
`Cc1csc(NC(=O)CSc2nnc(C)n2Cc2ccco2)n1` gave VDR inhibitor 4.4%.
For COc1ccc(C2C(C(=O)N3CCCCC3)CCC(=O)N2c2cc(OC)c(OC)c(OC)c2)cc1 (stereo not drawn) the results were VDR inhibitor 1.1%.
CC(=O)NNc1nc(-c2ccccc2)cs1 was read as VDR inhibitor inconclusive.
For CC(CNC(=O)c1ccc2nc(Cc3ccccc3)oc2c1)c1ccccc1 (stereo not drawn) the results were VDR inhibitor 2.7%.
`CCCc1nc(N2CCOCC2)c(C#N)c2c1CCCC2` gave VDR inhibitor -1.3%.
`CCC(Oc1ccccc1OC)C(=O)Nc1ccc2c(c1)n(C)c(=O)n2C` (stereo not drawn) gave VDR inhibitor 2.2%.
`C/C=C/C(=O)N[C@@H]1c2ccccc2CC[C@@H]1OCc1ccccc1` gave VDR inhibitor -7.3%.
O=C(CN1C(=O)NC(Cc2ccccc2)C1=O)Nc1ccc(F)c(Cl)c1 (stereo not drawn) was read as VDR inhibitor 4.5%.
Screening CCC1CCCCN1CCCNC(=O)C1CCCN(c2nn3c(=O)cc(C)nc3s2)C1 (stereo not drawn) returned VDR inhibitor -19.9%.
For Cc1n[nH]c(=S)n1/N=C/c1ccc(-c2ccccc2[N+](=O)[O-])o1 the results were VDR inhibitor 1.1%.
Screening O=C(Cc1ccc(F)cc1)Nc1cccc2cccnc12 returned VDR inhibitor -0.1%.
`Cc1nnc(SCC(=O)N2CCN(C(=O)c3ccco3)CC2)n1-c1ccccc1` gave VDR inhibitor 6.0%.
Screening COc1ccc(NC(=O)COC(=O)C2CC2)c(OC)c1 returned VDR inhibitor -8.0%.
Screening CCc1cnc2c(c1SCC(=O)NCc1ccc(C)cc1)c(=O)n(C)c(=O)n2C returned VDR inhibitor 3.0%.

3 compounds from above, arranged by heavy-atom count, high to low.
`Cc1nnc(SCC(=O)N2CCN(C(=O)c3ccco3)CC2)n1-c1ccccc1` gave VDR inhibitor 6.0%.
COc1cc2c(cc1OC)CN(C(=S)Nc1ccccc1)CC2 was read as VDR inhibitor 4.2%.
O=C(Nc1nccs1)c1ccc(COc2ccccc2Cl)o1 was read as VDR inhibitor 15.2%.

Next section.
For Cc1c(CC(=O)N2CCN(C(=O)C3COc4ccccc4O3)CC2)c(=O)oc2c(C)c(O)ccc12 (stereo not drawn) the results were VDR inhibitor 9.7%.
CCOC(=O)c1ccccc1NC(=O)Cn1cc(C(=O)c2cccc(OC)c2)c(=O)c2ccc(C)nc21 was read as VDR inhibitor 4.0%.
`CCN(CC)CCCNC(=O)Cn1cnc2ccc(S(=O)(=O)N3CCC(C)CC3)cc2c1=O` gave VDR inhibitor 1.5%.
COc1cc(C(=O)Nc2nc3ccccc3[nH]2)ccc1OC(F)F was read as VDR inhibitor 1.0%.
`CC(C)(C)c1cc(Cl)c(O)c(NC(=S)NC(=O)c2cccnc2)c1` gave VDR inhibitor -1.6%.
`CSc1nc(C)c(Oc2ccccc2)c(=O)n1C` gave VDR inhibitor -4.3%.
Screening CC(=O)Nc1c(C)nn(-c2ccccc2)c1N1CCC(C(=O)NCc2ccc(F)cc2)CC1 returned VDR inhibitor 3.3%.
CCOCCCn1c(=S)[nH]c2cc(C(=O)NCCN(CC)CC)ccc2c1=O was read as VDR inhibitor -4.7%.
Screening COc1ccc(N2CCN(C(=O)CCS(=O)(=O)c3ccc(OC)cc3)CC2)cc1 returned VDR inhibitor -9.4%.
Screening CCn1c(O)c(N=NC(=O)CNc2cccc(C)c2)c2ccccc21 returned VDR inhibitor 10.4%.
Screening CC1CCN(c2ncnc3c2cnn3-c2ccccc2)CC1 returned VDR inhibitor -5.7%.
`O=C(c1ccccc1)N1CCN(CC(O)COC2CCCCC2)CC1` (stereo not drawn) gave VDR inhibitor 2.4%.
Screening CC(=O)Nc1cc2c(c(Cl)c1Cl)-c1ccccc1C2=O returned VDR inhibitor inconclusive.
For O=C(Nc1ccncc1)c1ccc(Cl)c(S(=O)(=O)N2CCCCC2)c1 the results were VDR inhibitor -16.4%.
Screening N#C/C(=C\c1cn(-c2ccccc2)nc1-c1cccnc1)c1nnc2n1CCCCC2 returned VDR inhibitor 2.6%.
Cc1cc(C)n2nc(NCc3cccc(Br)c3)nc2n1 was read as VDR inhibitor -7.3%.
For CS(=O)(=O)c1ccc(C(=O)NC2CCCCC2)cc1 the results were VDR inhibitor -0.3%.
`N#C/C(C(=O)NCc1ccco1)=C1/SC(Cc2ccc(Cl)cc2)C(=O)N1c1ccccc1` (stereo not drawn) gave VDR inhibitor 6.9%.
`CCOC(=O)c1sc(=NC(=O)c2cccs2)n(C)c1C` gave VDR inhibitor -13.8%.
O=C/C=C/c1ccc(O)cc1 was read as VDR inhibitor -0.2%.
COC(=O)c1cn(NC(=O)CC2CCCCC2)c(=O)c2ccccc12 was read as VDR inhibitor 3.7%.
Screening CNC(=O)N1c2ccccc2NC(=O)CC1C (stereo not drawn) returned VDR inhibitor -16.1%.
For COc1ccccc1CC(=O)Nc1cc2oc3ccccc3c2cc1OC the results were VDR inhibitor -14.0%.
For O=C(Nc1n[nH]c(=S)s1)c1ccc2ccccc2c1 the results were VDR inhibitor -17.7%.
Screening COc1ccc(OC)c(NC(=O)C2CCCN(S(=O)(=O)c3cccc4cccnc34)C2)c1 (stereo not drawn) returned VDR inhibitor -3.5%.
For CC(O)(C#CCN1CCCCCC1)c1ccccc1 (stereo not drawn) the results were VDR inhibitor -11.9%.
Screening CCOC(=O)c1ccccc1NC(=O)N1CCn2c(C)ccc2C1CC (stereo not drawn) returned VDR inhibitor 16.9%.

From PubChem BioAssay
